# RecA intein inh: blocks M. tuberculosis RecA intein splicing; inhibition, %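 (about 9 µM by stock and volumes)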; 290,000 tested, 0.75% active; AID 2221; cell-free RecA intein splicing, fluorescence; in the data active = inhibition above about 30%; inconclusive = no clear call, values can overlap the other calls;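 also: 0% = vehicle wells and 100% = reference inhibitor control wells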
# Target sequence (P9WHJ3 whole entry, looked up): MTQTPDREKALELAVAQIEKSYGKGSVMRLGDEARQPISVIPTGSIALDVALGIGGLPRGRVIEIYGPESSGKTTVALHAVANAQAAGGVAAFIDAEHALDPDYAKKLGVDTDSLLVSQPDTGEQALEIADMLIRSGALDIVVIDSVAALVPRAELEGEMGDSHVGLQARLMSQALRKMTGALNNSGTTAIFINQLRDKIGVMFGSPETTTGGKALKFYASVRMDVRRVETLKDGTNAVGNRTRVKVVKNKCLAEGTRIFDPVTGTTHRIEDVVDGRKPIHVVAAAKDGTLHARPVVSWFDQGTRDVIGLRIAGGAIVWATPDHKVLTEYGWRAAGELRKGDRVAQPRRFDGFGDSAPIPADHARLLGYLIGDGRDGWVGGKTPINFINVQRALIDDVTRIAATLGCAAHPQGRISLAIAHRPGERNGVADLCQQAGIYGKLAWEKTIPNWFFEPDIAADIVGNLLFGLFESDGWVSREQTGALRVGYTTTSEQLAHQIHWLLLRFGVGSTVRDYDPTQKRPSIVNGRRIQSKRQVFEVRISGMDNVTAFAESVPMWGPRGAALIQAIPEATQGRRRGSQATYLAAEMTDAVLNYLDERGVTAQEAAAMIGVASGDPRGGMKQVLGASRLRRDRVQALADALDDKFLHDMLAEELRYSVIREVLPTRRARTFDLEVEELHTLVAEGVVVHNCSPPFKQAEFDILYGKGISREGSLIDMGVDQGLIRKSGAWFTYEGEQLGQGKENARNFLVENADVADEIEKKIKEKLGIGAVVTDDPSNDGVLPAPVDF
# Arbovirus inh: blocks arbovirus infection; arbovirus infection cell-based antiviral screen; inhibition, % at 10 µM; 200,000 tested, 0.37% active; AID 1251;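 active = inhibition from about 30%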;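 also: bluetongue infection of BSR cells; cell survival read as ATP light after 72 h; 0% = infected wells without compound and 100% = uninfected wells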
# YopH PTP inh: inhibitors of Yersinia enterocolitica YopH tyrosine phosphatase. fluorescence Ex485/Em525. inhibition, %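 (about 10 µM by stock and volumes)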. 140,000 tested, 0.16% active;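 active = inhibition of 50% or more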;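 also: controls were vehicle for no effect and minimum signal wells for full effect; inactives centre near -20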
# Mtb bLac sens: beta-lactam sensitization of Mtb H37Rv; M. tuberculosis H37Rv growth with meropenem, percent inhibition; hits of this screen are not shown here; inhibition, % at 25 µM; AID 434955; 330,000 tested, 0.27% active;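 active = about 74% or more and at least 40 points above the plate without the antibiotic, then above 30% in a dose series; inconclusive = first-round hits that could not be retested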;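 also: growth measured after seven days incubation then overnight dye step; 0% = bacteria only wells and 100% = bacteria with antibiotic; twin plates without the antibiotic show which effects depend on it; some results filed as inactive read as strong as hits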
# Mtb H37Rv: M. tuberculosis H37Rv growth inhibitors, H37Rv strain (AID 1626); M. tuberculosis H37Rv growth inhibition; higher % means a stronger effect; inhibition, % at 10 µM, or IC50 in µM where a hit was titrated; 220,000 tested, 0.95% active;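 active = confirmed in a dose series; inconclusive = inhibition above 80% but not taken into the dose series; inactive = below 80% or under 30% at every dose of the series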;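 also: bacteria incubated seven days before Alamar blue readout; 0% = bacteria only wells and 100% = bacteria with antibiotic wells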
# Arbovirus inh repeat: second read-out of Arbovirus inh, no call of its own (marks repeat the call); inhibition, %; measured here: 10K subset replicate screen; many hits read low in the repeat;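 first of two repeat runs on a subset; 0% = infected and 100% = uninfected wells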
# * = called active by the depositor; u = inconclusive; x = no result given. An excerpt, so the mix of outcomes need not match the whole.
SMILES,RecA intein inh,Arbovirus inh,YopH PTP inh,Mtb bLac sens,Mtb H37Rv,others
Cc1ccccc1-n1c(=O)cc(N2CC(C)OC(C)C2)[nH]c1=O (stereo not drawn),2.2,2.2,-35.5,x,-0.9%,
COc1ccc(-c2c[n+]3c(n2-c2ccccc2)CCCCC3)cc1,-3.4,8.7,-26.0,-5.7,-3.9%,
COCC(C)n1c(C)cc(C(=O)COC(=O)/C=C/c2cccc(F)c2)c1C (stereo not drawn),0.5,5.6,x,6.5,-2.4%,
CCn1nccc1C(=O)Nc1cccc(C)c1C,1.0,x,x,2.8,x,
CCOc1ccc(CN2CCNC(=O)C2CC(=O)N(C)CC2CCOCC2)cc1 (stereo not drawn),-2.7,x,x,-0.5,x,
CCc1ccc(CCC(=O)Nc2nnc(CC)s2)o1,-0.1,5.1,-33.8,-10.1,7.1%,
COc1cccc(-c2nc(CS(=O)(=O)CC(=O)NCCc3ccc(OC)c(OC)c3)c(C)o2)c1,1.1,x,x,5.7,x,
Cc1ccccc1C(=O)/C=C1/c2ccccc2CC(C)(C)N1C,3.7,17.3,-6.0,9.5,1.0%,
CCC(C)NS(=O)(=O)c1ccc(NS(=O)(=O)c2ccc(F)cc2)cc1 (stereo not drawn),-0.2,13.1,-36.0,-7.2,3.5%,
CC(C)N(C)C1CCN(C(=O)Nc2ccc(Cl)c(Cl)c2)CC1,1.0,-12.7,-33.5,-2.7,-5.4%,
O=C(CCc1ccccc1)NNC(=O)Nc1cccc(Cl)c1,2.2,x,x,4.4,x,
COc1cccc(CNC(=O)CS(=O)(=O)Cc2nc(-c3ccc(C)cc3)oc2C)c1OC,-0.3,x,x,4.3,x,
CSCCC(=O)NC1CC(C)(C)Cc2c1cnn2-c1ccccc1C (stereo not drawn),0.1,x,x,4.9,x,
O=C(NNC1=C(C(=O)C(F)(F)F)CCC1)c1ccc(Br)cc1,26.8,-30.6,-27.1,52.2,13.9%,
COc1ccc(Cl)cc1NC(=O)COC(=O)Cc1cccs1,3.6,x,x,58.0,x,
COc1ccccc1C(=O)Nc1ccc(Cc2ccncc2)cc1,0.9,2.8,-25.8,4.4,10.5%,
CC(=O)c1sc(N/N=C\c2ccccc2O)nc1C,-1.5,-4.6,x,77.2,2.0%,
N#CC1=C(N)C(C#N)(C#N)C(c2ccncc2)C2CN(C(=O)OCc3ccccc3)CC=C12 (stereo not drawn),13.2,-4.2,-136.9,7.3,3.6%,
COc1cc(OC)cc(C(=O)NC(=S)NCCc2ccccc2)c1,16.2,4.0,-24.6,14.4,8.1%,
COc1cc(/C=C2\S/C(=N/S(=O)(=O)c3ccc(C)cc3)NC2=O)c([N+](=O)[O-])cc1OC,-2.9,-2.6,-2.3,6.5,-12.8%,
COC(=O)c1sc(S(=O)(=O)Nc2ccc3cn[nH]c3c2)c(C(=O)OC)c1C,5.4,2.1,-14.4,-3.1,-3.5%,
COc1ccc(C)cc1NC(=O)CN1CCN(S(=O)(=O)c2ccc(F)cc2)CC1,0.7,5.2,-34.6,47.2,-4.8%,
COc1cccc(/C=N/NC(=O)CNC(=O)c2cccnc2)c1O,-3.5,x,x,7.6,x,
C=CCc1cc(S(=O)(=O)c2ccc(O)c(CC=C)c2)ccc1O,4.9,x,x,-2.7,x,
Cc1ccc(N/N=C2\CS(=O)(=O)N(C)c3ccsc32)cc1,8.8,-16.0,x,93.0,u,
O=C(Cc1ccccc1)Nc1ccccc1N1CCCC1,-0.3,12.7,x,1.2,8.1%,
O=C(CCCN1C(=O)CCC1=O)Nc1cccc(C(F)(F)F)c1,1.1,2.3,-23.1,-6.0,-0.3%,
Cc1cccc(-c2nc3ccc(C(=O)NCCN4CCN(C)CC4)cc3nc2-c2cccc(C)c2)c1,-1.6,x,x,52.0,x,
CCCN1CCC(NC(=O)Cc2ccccc2C)CC1,-0.4,x,x,-5.2,x,
OCC1C2c3ccccc3C(c3ccccc32)C1CO (stereo not drawn),-1.1,x,x,9.8,-1.4%,
COc1ccccc1NC(=O)N1CCCC1C(=O)Nc1nnc(C(C)C)s1 (stereo not drawn),-0.6,-0.8,-53.7,5.0,-3.7%,
O=S(=O)(c1ccccc1)N1CCN(S(=O)(=O)c2ccc(F)cc2)CC1,2.3,x,x,0.6,x,
NS(=O)(=O)c1ccc(NC(=O)c2ccc(-c3ccccc3)cc2)cc1,x,-3.1,x,x,-0.7%,
CCC(=O)Nc1cccc(C2=NOC3(C2)C[C@H](C(N)=O)N(C(=O)CC#N)C3)c1 (stereo partly drawn),-0.5,x,x,-6.2,-1.8%,
O=S(=O)(c1ccccc1)N1CCN=C1SCc1cccnc1,2.1,9.3,x,-0.1,x,
COc1ccc(NC(=O)CN(C)C(=O)c2cnc(Cl)c(Cl)c2)cc1,0.7,x,x,3.6,x,
CN1C(=O)N(C)c2ccc(C=O)c3cccc1c23,-253.8,-8.3,x,45.9,30.2%,
Cc1ccc2oc(=O)c(/C=C(\O)c3sc(C)nc3C)nc2c1,-8.8,1.2,-19.3,40.6,-8.8%,
C=CCOc1ccccc1CN(CCc1ccccc1)C(=O)c1cccc(S(C)(=O)=O)c1,6.0,x,x,4.3,x,
CC(c1nnc(SCC(=O)NC(=O)NCc2ccco2)n1-c1ccc(Cl)cc1)N(C)C (stereo not drawn),4.0,5.6,0.8,3.2,0.8%,
CCc1ccc(-c2nc(CS(=O)CC(=O)NCCCN3CCC(C)CC3)c(C)o2)cc1 (stereo not drawn),0.8,x,x,-0.6,x,
CCOCCCNc1nc2c(c(=O)[nH]c(=O)n2C)n1CCCc1ccccc1,2.2,3.9,-3.5,-0.8,2.4%,
O=C(CCl)NC1CCCc2ccccc21 (stereo not drawn),14.6,2.7,x,98.7,20.6µM*,
O=C1C(=O)N(Cc2cccnc2)C(c2ccccn2)/C1=C(/O)c1ccc(Br)cc1 (stereo not drawn),-1.7,13.9,-44.1,-10.5,-1.1%,
C=C1CCN([C@@H](CC(C)C)C(=O)Nc2nc3ccc(Cl)cc3s2)S(=O)(=O)c2ccccc21,-2.3,x,x,-4.1,8.7%,
CC1=C(C(=O)OCc2ccccc2)C(/C=C/c2ccccc2)N2C(=O)CCSC2=N1 (stereo not drawn),-1.1,-24.4,-13.9,10.4,-6.1%,
N#CC1=C(N)Oc2nc[nH]c(=O)c2C1c1cccs1 (stereo not drawn),-2.4,-4.1,x,-1.8,5.2%,
COc1ccc(NC(=O)CN(C)C(=O)C(C)N2C(=O)c3ccccc3C2=O)cc1 (stereo not drawn),0.2,x,x,-11.7,x,
CCCc1nnc(SCC(=O)Nc2cccc(C(F)(F)F)c2)o1,-1.3,x,x,-7.5,x,
COc1ccccc1N1CCN(/N=C\c2ccccc2)CC1,0.4,x,x,-0.8,x,

# Structures from the list above that have a furan ring, fused or not (2):
SMILES,RecA intein inh,Arbovirus inh,YopH PTP inh,Mtb bLac sens,Mtb H37Rv,others
CCc1ccc(CCC(=O)Nc2nnc(CC)s2)o1,-0.1,5.1,-33.8,-10.1,7.1%,
CC(c1nnc(SCC(=O)NC(=O)NCc2ccco2)n1-c1ccc(Cl)cc1)N(C)C (stereo not drawn),4.0,5.6,0.8,3.2,0.8%,

# By substructure, the compounds so far containing four or more nitrogen atoms
SMILES,RecA intein inh,Arbovirus inh,YopH PTP inh,Mtb bLac sens,Mtb H37Rv,others
N#CC1=C(N)C(C#N)(C#N)C(c2ccncc2)C2CN(C(=O)OCc3ccccc3)CC=C12 (stereo not drawn),13.2,-4.2,-136.9,7.3,3.6%,
COc1cccc(/C=N/NC(=O)CNC(=O)c2cccnc2)c1O,-3.5,x,x,7.6,x,
Cc1cccc(-c2nc3ccc(C(=O)NCCN4CCN(C)CC4)cc3nc2-c2cccc(C)c2)c1,-1.6,x,x,52.0,x,
COc1ccccc1NC(=O)N1CCCC1C(=O)Nc1nnc(C(C)C)s1 (stereo not drawn),-0.6,-0.8,-53.7,5.0,-3.7%,
CCC(=O)Nc1cccc(C2=NOC3(C2)C[C@H](C(N)=O)N(C(=O)CC#N)C3)c1 (stereo partly drawn),-0.5,x,x,-6.2,-1.8%,
CC(c1nnc(SCC(=O)NC(=O)NCc2ccco2)n1-c1ccc(Cl)cc1)N(C)C (stereo not drawn),4.0,5.6,0.8,3.2,0.8%,
CCOCCCNc1nc2c(c(=O)[nH]c(=O)n2C)n1CCCc1ccccc1,2.2,3.9,-3.5,-0.8,2.4%,
N#CC1=C(N)Oc2nc[nH]c(=O)c2C1c1cccs1 (stereo not drawn),-2.4,-4.1,x,-1.8,5.2%,

# New compounds follow.
SMILES,RecA intein inh,Arbovirus inh,YopH PTP inh,Mtb bLac sens,Mtb H37Rv,others
Cc1ccccc1S(=O)(=O)c1c(C)cc(C)n(C)c1=O,-1.3,23.0,x,1.4,-4.3%,
COc1cc2c(cc1OC)C(C)N(CCN1C(=O)c3ccccc3C1=O)CC2 (stereo not drawn),0.9,x,x,-11.5,x,
COc1ccc(CCNC(=O)c2cc3c(=O)n(C)c4ccccc4c3n2C)cc1OC,-0.6,x,x,-5.5,9.8%,
Cn1cnc2c(NCc3ccco3)ncnc21,-0.5,1.2,x,-0.1,-7.8%,Arbovirus inh repeat=2.7
CCN1CCN(C(=O)N(c2ccccc2)c2ccccc2)CC1,0.6,x,x,-6.2,x,
Cc1[nH]cnc1CN1CCc2c(c3ccccc3n2C)C1=O,-2.2,x,x,1.8,7.8%,
CS(=O)(=O)N1CCN(C(=O)NC2CCCCC2)CC1,-3.1,1.4,x,-9.0,0.2%,
CC1CCN(CCCCOc2ccccc2-c2ccccc2)CC1,0.9,8.5,-21.1,3.6,9.0%,
C=CCn1c(Cc2cccs2)nnc1SCC(=O)Nc1cccc(OC)c1,0.1,-16.8,-50.8,7.2,-0.3%,
COc1ccc(CCn2c(=O)c3cccnc3n(Cc3cccc([N+](=O)[O-])c3)c2=O)cc1OC,-3.8,-6.2,x,-3.7,-3.6%,
CC(=O)Nc1ccc(C)cc1NC(C)=O,3.8,9.9,2.2,-0.7,-11.4%,
COC(=O)CC(NC(=O)c1ccco1)c1cccc2ccccc12 (stereo not drawn),1.2,-6.4,-34.4,-6.4,4.5%,
Cn1c(SCC(=O)NC2CC2)nnc1-c1cccs1,0.6,x,x,-24.9,x,
O=C(Nc1ccc(F)cc1)c1ccccc1F,2.8,-0.2,-5.1,6.8,-9.7%,
O=C(O)c1ccccc1SCC(=O)N1c2ccccc2Sc2ccccc21,0.3,20.3,60.3*,5.5,-6.4%,
CCC(C)NC(=O)c1ccc(NC(=O)C2=C(C)OCCS2)cc1 (stereo not drawn),4.2,x,x,-1.5,x,
CCc1nnc(NC(=O)CSc2nc(C)c3c(c2C#N)CCCC3)s1,-9.6,-7.0,-38.2,-4.4,-7.2%,
COC(=O)c1ccccc1NC(=O)c1ccco1,x,5.5,-27.6,-3.3,0.5%,
O=C(Nc1ccon1)c1ccc2c(c1)OCO2,-0.3,0.2,3.3,-5.6,-2.3%,
O=C(NCCN1CCOCC1)c1ccc2c(c1)N(Cc1ccccc1F)C(=O)c1ccccc1S2(=O)=O,5.1,x,x,-5.6,x,

# 2 entries picked at random from the list so far, as already listed:
SMILES,RecA intein inh,Arbovirus inh,YopH PTP inh,Mtb bLac sens,Mtb H37Rv,others
Cn1cnc2c(NCc3ccco3)ncnc21,-0.5,1.2,x,-0.1,-7.8%,Arbovirus inh repeat=2.7
O=C1C(=O)N(Cc2cccnc2)C(c2ccccn2)/C1=C(/O)c1ccc(Br)cc1 (stereo not drawn),-1.7,13.9,-44.1,-10.5,-1.1%,

# Carrying on:
SMILES,RecA intein inh,Arbovirus inh,YopH PTP inh,Mtb bLac sens,Mtb H37Rv,others
COc1ccc(Oc2ncccc2[N+](=O)[O-])cc1,-2.1,x,x,2.9,7.6%,
CC1=NN(c2ccccc2)C(=O)/C1=C/N(C)C,0.9,x,x,1.3,-6.8%,
Cc1c([N+](=O)[O-])c([N+](=O)[O-])nn1CC(=O)N1CCOCC1,-5.5,2.1,x,0.5,6.2%,
CCOC(=O)N1CCN(c2ccc(C(C)=O)cc2F)CC1,-0.9,-5.6,-25.5,-5.2,6.9%,
CCOC(=O)c1csc(NC(=O)CSc2nnnn2-c2cccc(OC)c2)n1,-3.1,3.8,26.1,-0.8,-0.1%,
CCCCCOP(=O)(c1ccccc1)c1ccccc1,4.5,-2.1,-23.3,5.8,0.1%,

# Bioassay records: PubChem, several laboratories
